Screens as filed in PubChem.
LT uptake inh: inhibitors of anthrax lethal toxin internalization. AID 912. Cells, anthrax lethal toxin internalization, FRET ratio (460/530). 70,000 tested, 0.67% active. Potency, µM (series often up to 40 µM), for inactives: at the highest dose activity change, negative = inhibition, hits mostly inhibitors; active = well fitted falling ratio curve with the 530 nm signal flat; inconclusive = other ratio curves, or a change in one channel alone; inactive = flat curves in the ratio and both channels; the % refers to the ratio; also: % is scaled to controls: 0 for no effect and ±100 for the full control effect; nearly all actives have a fitted effect of over 50% in size; tested in ME-180 cells; beta-lactamase reporter
Prx2 Sm inh: Schistosoma mansoni Prx2 inhibition. AID 448. 65,000 tested, 0.07% active. S. mansoni Prx2 activity coupled to TGR/GSH (TGR is thioredoxin glutathione reductase), NADPH fluorescence loss, qHTS; some inactives read as strong as hits. Potency, µM; active means full or partial inhibition curve with a strong effect at the top dose; inconclusive means weaker partial or single-point curve; inactive means no accepted curve; also: series up to 57 µM; many of its hits are not listed in these tables
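Prx2 inhibition was measured as reduced NADPH consumption when electrons flowed from NADPH through TGR and glutathione to Prx2 and H2O2. Plates were read kinetically over 8 min; enzyme reagents were held at 4 deg C during dispensing.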
* marks the source's active call; other numbers are inactive results; u = inconclusive; x = no result given; & = joins results of further samples; [ ] = remark or other dose. Potency is read from the fitted curve at half-maximal effect. This is a subset; count on the stated rates, not on these rows.

Structure	Prx2 Sm inh	LT uptake inh
COC(=O)[C@@]1(Cc2ccc(OC)cc2)[C@@H]2C(=CC(=O)[C@H]2CC(=O)C(=O)N2CCCC2)CN1C(=O)c1ccccc1	>57	-22%
O=C(O)c1cccnc1	>57	10%[3.58 µM]
COCCCn1c(SCC(=O)Nc2cccc(C)n2)nnc1-c1ccco1	>57	-13%
CSc1nsc(SC)c1C(=O)NCCNS(=O)(=O)c1ccc(C)cc1	>57	-9%
CCN(CC)S(=O)(=O)c1ccc2[nH]cc(C(=O)NCCc3ccccc3)c(=O)c2c1	>57	11%
Cn1c2c(c(=O)n(C)c1=O)CN(Cc1ccc3c(c1)OCO3)CN2	>57	x
COc1cc(C(=O)NCCc2ccc(S(N)(=O)=O)cc2)cc(OC)c1OC	>57	x
Cn1c(=O)cc(OCC(=O)NC2CCCCC2)c2ccccc21	>57	-6%
CN1CCN(S(=O)(=O)c2ccc(-c3ccc(S(=O)(=O)N4CCN(C)CC4)cc3)cc2)CC1	x	-3%
CCC(Cc1ccccc1)NC(=O)CN1C(=O)CSc2ncccc21 (stereo not given)	>57	-5%
CC1(c2ccccc2)NC(=O)N(CC(=O)NC(=O)NC2CCCC2)C1=O (stereo not given)	>57	-16%
COC(=O)c1oc2nc(C)cc(C)c2c1N	>57	-15%

New compounds follow:
Structure	Prx2 Sm inh	LT uptake inh
NC(=O)NC(c1ccccc1)c1ccccc1F (stereo not given)	x	-4%
COC(=O)C/C=C\[C@@H](C)[C@@H](/C=N\O[C@@H](C)c1cn([C@H](CO)Cc2ccccc2)nn1)NS(=O)(=O)c1ccc(C)cc1	x	-14%&-10%[1.6 µM]
CCc1cccc2c(=O)c(C(=O)N3CCCCCC3)c[nH]c12	>57	u
COC(=O)c1ccc(OCc2nc(N)nc(N3CCOCC3)n2)cc1	>57	-15%
c1cncc(CNC2=NCCCCC2)c1	>57	6%
Cn1cc(-c2nc3cnc(Oc4ccccc4)nc3n(Cc3cccs3)c2=O)c2ccccc21	>57	u
COc1ccc(Br)cc1C(=O)Nc1ccc(O)cc1	>57	-10%
CC(C)NC(=O)Cn1c(SCC(=O)N2CCCc3ccccc32)nc2ccccc21	>57	6%
Cc1nnc(N(Cc2ccco2)C(=O)c2cccc(C#N)c2)s1	>57	-1%
CC(C)CO/N=C1/[C@H]2O[C@@H]2[C@@H](O)[C@H]2[C@H]1CCn1c(=O)n(Cc3cc4c(cc3Cl)OCO4)c(=O)n12	x	-12%[8 µM]
C=CCOC(=O)CCCCCCCC	x	-19%
CC(C)(C)NC(=O)CN(Cc1cccs1)C(=O)c1csnn1	>57	0%

Continuation:
Structure	Prx2 Sm inh	LT uptake inh
CC(C)(C)N=C1SCC(C)(/C=N/O)S1 (stereo not given)	>57	5%
Cc1ccc(C)c(NS(=O)(=O)c2c(C)ccc3nsnc23)c1	>57	-9%
CC(Nc1cc(=O)n(C)c(=O)[nH]1)c1ccccc1 (stereo not given)	>57	10%
O=C(CC(=O)c1cc(Cl)ccc1O)c1ccccc1	x	7.9µM*
Cc1ccc(Cn2c(NCCc3ccccc3)nc3c2c(=O)n(C)c(=O)n3C)cc1	>57	u
c1ccc2c(N3CCCCC3)nc(N3CCCC3)nc2c1	>57	10µM*
CCCCn1c2c(c(=O)n(C)c1=O)C(CC(=O)OCC(=O)Nc1cccc(C(F)(F)F)c1)C(=O)N2 (stereo not given)	u	-18%
CCN(CCNC(=O)c1cccc(N2CCCC2=O)c1)c1ccccc1	>57	16%
COC(=O)Cc1[nH]nc2c1C(c1cccc(OC)c1OC)C(C#N)=C(N)O2 (stereo not given)	>57	10%
CC1=C(C(=O)OCc2ccccc2)C(c2ccco2)C2=C(CC(C)(C)CC2=O)N1 (stereo not given)	x	-15%
COc1ccc(C)cc1NC(=O)CN1CCN(c2ccc(F)cc2)CC1	>57	-15%
COc1cccc(N(CC(=O)NC(C)(C)C)C(=O)C2CSC(=O)C2)c1 (stereo not given)	>57	6%

The listing continues.
Structure	Prx2 Sm inh	LT uptake inh
O=C(Nc1cccc2c1CCCC2)C1CCN(c2nnnn2-c2ccccc2)CC1	>57	u
O=c1c(-c2ccc(F)cc2)nc2cnc(N3CCOCC3)nc2n1Cc1ccc(F)cc1	>57	u
COc1ccc(N(CC(=O)N2CCN(C)CC2)S(=O)(=O)c2ccccc2)cc1OC	>57	0%
CC(C)NC(=O)c1ccccc1NC(=O)c1ccccc1N(C)S(C)(=O)=O	>57	-1%
CCOC(=O)CNc1c(-c2ccc(O)cc2)nc2ccc(Cl)cn12	>57	u
CC1=Nn2c(nnc2-c2ccccc2)SC1	>57	-2%
O=C(c1cccc(-c2nnc(-c3ccccc3)o2)c1)N1CCCCC1	x	u
O=C(c1ccc2c3c(cccc13)CC2)N1CCN(c2ncccn2)CC1	>57	-11%
Cn1c(=O)c2c(ncn2CC(=O)OCC(=O)NC2CCCc3ccccc32)n(C)c1=O (stereo not given)	>57	-2%
COc1ccccc1CC(=O)N1CCN(c2cccc(C(F)(F)F)c2)CC1	>57	-5%
C=C(C)OC(C)=O	x	-15%
Cc1cc(C)c2c(n1)sc1c(O)cc(=O)[nH]c12	>57	0%

Other entries
Structure	Prx2 Sm inh	LT uptake inh
COC(=O)NC(c1ccc(Cl)cc1)C(C(C)=O)C(=O)OC (stereo not given)	x	-8%[8 µM]
CCOc1ccccc1-c1nc(C(N)=O)c2[nH]c(=O)n(-c3cccc(C)c3)c2n1	>57	-3%
COc1cc(NS(=O)(=O)c2ccc(C)cc2)c2ncccc2c1	>57	15%
CC(=O)OC(C(=O)c1ccccc1)c1ccccc1 (stereo not given)	x	4%
O=C(CCCN1CCC(n2c(=O)[nH]c3ccccc32)CC1)c1ccc(F)cc1	>57	-2%[3.58 µM]
CN(C)CCN1C(=O)C(=O)/C(=C(/O)c2ccc(F)cc2)C1c1ccccc1F (stereo not given)	x	-6%
Cc1cc(C)c(C(=O)CSc2nnc(-c3ccccc3Br)o2)cc1C	>57	-5%
CC(c1ccco1)N(C(=O)C12CC3CC(CC(C3)C1)C2)c1ccccn1 (stereo not given)	>57	0%
COCCCNC(=O)C1CCN(c2nc(C)cc(C)n2)CC1	>57	6%
Cc1cc(NCCCN2CCOCC2)n2c(nc3ccccc32)c1C#N	>57	u
CCNC(=O)C1CC(=O)N(Cc2ccc3c(c2)OCO3)C(=Nc2ccc(OCC)cc2)S1 (stereo not given)	>57	u
O=c1c(-c2ccc(F)c(F)c2)nc2cncnc2n1Cc1ccccc1Cl	>57	u

Five consecutive compounds out of the list so far, quoted:
Structure	Prx2 Sm inh	LT uptake inh
COC(=O)NC(c1ccc(Cl)cc1)C(C(C)=O)C(=O)OC (stereo not given)	x	-8%[8 µM]
CCOc1ccccc1-c1nc(C(N)=O)c2[nH]c(=O)n(-c3cccc(C)c3)c2n1	>57	-3%
COc1cc(NS(=O)(=O)c2ccc(C)cc2)c2ncccc2c1	>57	15%
CC(=O)OC(C(=O)c1ccccc1)c1ccccc1 (stereo not given)	x	4%
O=C(CCCN1CCC(n2c(=O)[nH]c3ccccc32)CC1)c1ccc(F)cc1	>57	-2%[3.58 µM]

Following part.
Structure	Prx2 Sm inh	LT uptake inh
Cc1c(OCc2ccccc2)cccc1OCc1ccccc1	x	-10%[8 µM]
O=C(NCCN1CCN(c2ccccc2)CC1)C1CCN(S(=O)(=O)c2cccc3nonc23)CC1	>57	5%
Cc1ccc(S(=O)(=O)N(Cc2ccccc2)Cc2ccco2)cc1	x	u
CCOc1ccc2ccccc2c1C(=O)N1CCN(c2ccccc2)CC1	>57	-21%
Cc1cc(N2CCCC2=O)c(N)cc1N	>57	15%
CCN1CCc2c(sc(NC(=O)c3ccc(S(=O)(=O)N4CCOCC4)cc3)c2C(N)=O)C1	>57	6%
O=C(COC(=O)c1ccc(Br)o1)Nc1ccc(S(=O)(=O)N2CCCC2)cc1	>57	u
Cc1cc(OC(=O)CCNC(=O)OC(C)(C)C)c2c3c(c(=O)oc2c1)CCC3	>57	7%
O=C(O)CCC(=O)Nc1ccccc1N1CCOCC1	>57	7%
CCN(CC)S(=O)(=O)c1cccc(-c2nnc(SCCOc3ccc(Cl)cc3)o2)c1	>57	u
C[C@@H]1C[C@@H]2[C@H]3CCC4=CC(=O)C=C[C@]4(C)[C@]3(F)[C@@H](O)C[C@]2(C)[C@@]1(O)C(=O)CO	>57	-1%[3.58 µM]
COC(=O)Nc1cc(C(F)(F)F)ccc1N1CCN(c2ccccc2)CC1	>57	-3%

More results:
Structure	Prx2 Sm inh	LT uptake inh
COc1ccc(C2c3c(oc4ccccc4c3=O)C(=O)N2Cc2ccncc2)cc1OC (stereo not given)	>57	6%
Cc1ccc(CN2C(=O)CCC2C(=O)NCc2ccc3c(c2)OCO3)cc1 (stereo not given)	>57	-7%
Cn1cnc(S(=O)(=O)Nc2ccc(C(F)(F)F)cc2)c1	>57	6%
C=CCN1C(=O)C(CC(=O)NCC)SC1=Nc1ccc(S(N)(=O)=O)cc1 (stereo not given)	>57	5%
COc1cccc2c(=O)n(CC(=O)N3CCN(c4ccccc4)CC3)ccc12	>57	1%
O=C(NC1CCCC1)C(c1ccccc1F)N(C(=O)c1ccco1)C1CCCC1 (stereo not given)	>57	8%
COc1nc(-c2ccc(C)cc2)ccc1-c1noc(-c2cccnc2)n1	>57	u
CCNc1ncc2nc(-c3ccc(OC)cc3)c(=O)n(-c3ccc(OC)cc3)c2n1	>57	u
C=CCNC(=O)NC(=O)COC(=O)CCCSc1nc2ccccc2[nH]1	>57	10%
Cc1ccccc1C(=O)N1CCN(c2ccc(NC(=O)c3ccco3)cc2Cl)CC1	>57	u
O=C(c1ccco1)N1CCN(C(=O)C2CC(c3ccc(Cl)c(Cl)c3)=NO2)CC1 (stereo not given)	>57	2%
Cn1nc(C(=O)NCc2cccnc2)c2ccccc2c1=O	>57	-10%

Additional structures.
Structure	Prx2 Sm inh	LT uptake inh
CCOc1ccc2[nH]c(=O)c(C(c3nnnn3Cc3ccco3)N3CCCC(C)C3)cc2c1 (stereo not given)	>57	-17%
CC(=O)Oc1ccccc1C(=O)Nc1ncc([N+](=O)[O-])s1	x	1.3µM*
CCn1c(CSc2nnc(-c3ccoc3C)n2C)nc2cc(S(=O)(=O)N(C)C)ccc21	>57	1%
COCC(=O)Nc1nc(-c2ccccc2)ns1	>57	u
CCOC(=O)c1sc(=NC(=O)c2cc(OC)c(OC)c(OC)c2)n(C)c1C	>57	13%
CCCCCOC(=O)Cn1c(N2CCOCC2)nc2c1c(=O)[nH]c(=O)n2C	>57	-1%
COc1ccc(-c2cc(C(F)(F)F)n3nc(C(=O)N4CCC5(CC4)OCCO5)cc3n2)cc1OC	>57	0%
Cc1nc(S(=O)(=O)N2CCOCC2)c(C#N)c(C)c1Cl	>57	2%
CC1(C)CC(=O)C=C(Nc2ccccc2O)C1	>57	-4%
Fc1ccc2[nH]c3c(N4CCN(c5ccccc5)CC4)ncnc3c2c1	>57	u
O=C(NCc1cccs1)C1CCCN(c2nc3ccccc3o2)C1 (stereo not given)	>57	u
CCC1Oc2ccc(C)cc2N(CC(=O)NCCC2=CCCCC2)C1=O (stereo not given)	>57	x

Continued.
Structure	Prx2 Sm inh	LT uptake inh
NC(=O)c1ccsc1NC(=O)CSc1nc2ccccc2c(=O)n1CCCO	>57	7%
O=S(=O)(c1ccc(Oc2ccc(S(=O)(=O)N3CCOCC3)cc2)cc1)N1CCOCC1	x	-15%
Cc1cc(C(F)(F)F)c(C#N)c(SCC(=O)NC(C)(C)C)n1	>57	-3%
COc1ccc(C)cc1-n1nnnc1SCC(=O)c1ccc2c(c1)OCCO2	>57	-20%
Cc1cc(C)nc(N2CCCC(C(=O)Nc3ccc4c(c3)OCCO4)C2)n1 (stereo not given)	>57	20%
C/C=C/Cn1c(Br)nc2c1c(=O)[nH]c(=O)n2C	>57	2%
Cc1ccc(Nc2nc(C(=O)N3CCC(C(=O)N4CCN(C)CC4)CC3)cs2)cc1	>57	-22%
O=C1c2oc3ccc(Cl)cc3c(=O)c2C(c2cccnc2)N1Cc1ccco1 (stereo not given)	>57	x
O=C1/C(=C\c2ccccc2)C[C@@]2(O)[C@H]3Cc4ccc(O)c5c4[C@@]2(CCN3CC2CC2)[C@@H]1O5	>57	u
Cc1ccc2c(c1)NCC(C(=O)NC1CCC(C)CC1)O2 (stereo not given)	>57	1%
COC(=O)C1=C(C)NC(=O)NC1c1cn(-c2ccccc2)nc1-c1cccs1 (stereo not given)	>57	0%
CN1CCN(S(=O)(=O)c2ccc(NC(=O)c3ccc(Br)s3)cc2)CC1	>57	-6%

(listing goes on)
Structure	Prx2 Sm inh	LT uptake inh
O=C(NCc1cccnc1)NC1CCCN1S(=O)(=O)c1ccc(Cl)cc1 (stereo not given)	>57	-8%
COCCSc1ccccc1C(=O)NCCCn1ccnc1	>57	-4%
C/C(=N\O)C1(C)N(O)C(C)(C)C(c2ccc(Br)cc2)=[N+]1[O-] (stereo not given)	>57	9%
Cc1cc(NC(=O)CCOc2ccccc2)no1	>57	5%
CC(C)C(c1nnnn1C1CCCC1)N1CCN(C(=O)c2ccco2)CC1 (stereo not given)	>57	-12%
COc1ccc(NC(=O)Cn2nnc(C(N)=O)c2N)c(OC)c1	>57	17%
